# Screens (PubChem)
# ClpP mod = qHTS Assay for Activators of ClpP; ATP-dependent Clp protease proteolytic subunit (Bacillus subtilis (strain 168)), P80244; purified B. subtilis ClpP, FRET peptide cleavage, 20 min; Potency, µM (series often up to 57.5 µM), inactives show at the highest dose activity change, negative = active; 1.9% of 340,000 active; active = well fitted falling curve with a large enough effect; inconclusive = small, poorly fitted or top-dose-only effect; inactive = no such curve, though single readings can be large or run the other way; note: the source files actives as falling curves though it sought activators and does not explain the sign; nearly all actives have a fitted effect of over 65% in size; many hits overshoot -100%
# Target sequence (P80244 whole entry, looked up): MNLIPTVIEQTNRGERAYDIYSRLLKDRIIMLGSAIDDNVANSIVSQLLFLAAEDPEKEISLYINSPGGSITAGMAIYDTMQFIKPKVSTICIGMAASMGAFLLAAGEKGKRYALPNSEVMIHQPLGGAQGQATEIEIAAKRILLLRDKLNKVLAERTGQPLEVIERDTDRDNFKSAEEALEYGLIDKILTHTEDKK
#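 Buffer: 100 mM Tris/HCl pH8, 100 mM KCl, 0.05% low protease BSA, 2.5% glycerol, 0.01% Tween-20. ClpP 10 microg/mL final; 20 min RT; delta FRET normalized to ADEP and DMSO controls.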
# Active calls of the source: *; u = inconclusive. Potency is the fitted concentration of half-maximal effect.
no.	mol	ClpP mod
1	Cc1ccccc1-c1noc(-c2ccc(N3CCC(C)CC3)c([N+](=O)[O-])c2)n1	0.2%
2	CCOC(=O)c1c(NC(=O)c2cc(-c3ccc(Br)cc3)on2)sc(C(C)=O)c1C	-1.9%
3	Cc1ccc(-n2c(SCc3ccccc3F)nc3[nH]ncc3c2=O)cc1C	-1.5%
4	CCOC(=O)Cn1c(=O)n(CC2CCCO2)c2nc(-c3ccc(C)cc3)nc(C(N)=O)c21 (stereo unspecified)	4.2%
5	Cc1cccc(Cn2c(CN3CCCC(C)C3)nc3c2c(=O)n(C)c(=O)n3C)c1 (stereo unspecified)	-1.3%
6	COc1ccc(S(=O)(=O)NCCCO)cc1-c1nnc2c3ccccc3c(C)nn12	-16%
7	CCCc1noc(-c2ccc(NCc3ccccc3OC)c([N+](=O)[O-])c2)n1	0.2%
8	COc1ccccc1NC(=O)C(Cc1ccccc1)NS(=O)(=O)c1ccc2c(c1)c(=O)n(C)c(=O)n2C (stereo unspecified)	-14%
9	CCC(C)NC(=O)c1c(C)oc2ncn(CC(C)C)c(=O)c12 (stereo unspecified)	-0.8%
10	COc1cccc(-c2cn3c(n2)sc2cc(C(=O)NCc4cccs4)ccc23)c1	4.1%

# Next results follow.
no.	mol	ClpP mod
11	Cc1ccc(C)c(CNC(=O)c2cc3ccccn3n2)c1	-29%
12	COc1cccc(C2C(C(=O)Nc3ccc(Cl)cc3)=C(C)Nc3c(C(=O)Nc4ccccc4)cnn32)c1OC (stereo unspecified)	28µM*
13	CCN1CCN(C(=O)c2ccc3c(c2)N(Cc2ccc(F)cc2)C(=O)c2ccccc2S3(=O)=O)CC1	-5.7%
14	COC(=O)c1c(NC(=O)/C(C#N)=C/c2ccccc2)sc2c1CCC2	-3.9%
15	CCOc1ccc(CNC(=O)C2CCN(C(=O)c3ccc(-n4ccc5ccccc54)s3)CC2)cc1	u
16	Cc1nn(C(C)C(=O)NCc2ccc(OC(C)C)cc2)c(=O)c2c1sc1ccccc12 (stereo unspecified)	u
17	CC(=O)N1CCc2c(sc3c2c(=O)n(-c2cc(Cl)ccc2C)c(=O)n3C)C1	u
18	COc1cccc(Cn2ccn(-c3ccc(F)cc3)c(=O)c2=O)c1	0.3%
19	CCc1ccc(NC(=O)c2cc3c(=O)n(Cc4cccs4)ccc3nc2C)cc1	-18%
20	CCOC(=O)c1cnn(-c2ccc(C(=O)Nc3cccc(C(C)=O)c3)cc2)c1N	-14%

# Three structures from above, arranged by length of the SMILES, high to low:
no.	mol	ClpP mod
12	COc1cccc(C2C(C(=O)Nc3ccc(Cl)cc3)=C(C)Nc3c(C(=O)Nc4ccccc4)cnn32)c1OC (stereo unspecified)	28µM*
17	CC(=O)N1CCc2c(sc3c2c(=O)n(-c2cc(Cl)ccc2C)c(=O)n3C)C1	u
18	COc1cccc(Cn2ccn(-c3ccc(F)cc3)c(=O)c2=O)c1	0.3%

# Later entries:
no.	mol	ClpP mod
21	CCOc1ccc(-c2cnc(NCc3ccc(C(F)(F)F)cc3)n2C)cc1	-1.8%
22	Cc1ccccc1Cn1c2ccccc2c2cnn(CC(=O)NCCc3ccc(Cl)cc3)c(=O)c21	-10%
23	CCc1ccccc1N1C(=O)N(CC(=O)c2ccc(Cl)cc2)c2ccccc2S1(=O)=O	0.5%
24	O=C1C(=O)C(c2ccc(O)cc2O)Oc2cc(O)cc(O)c21 (stereo unspecified)	-2.1%
25	CCc1ccc(-n2c(SCc3ccccc3Cl)nc3[nH]ncc3c2=O)cc1	-4.3%
26	COc1ccc2c(c1)c1c(c(=O)n(-c3ccccc3C)c(=O)n1CC(=O)Nc1c(C)cccc1C)n2C	4.1%
27	CCc1nn(CC(=O)NCC(C)c2ccccc2)c(=O)c2cc3c(OC)cccc3n12 (stereo unspecified)	4.4%
28	CCc1ccccc1NC(=O)N1CCN(c2nnc(C)c3c(C)n(-c4ccccc4)nc23)CC1	-12%
29	CC(=O)N1CCc2cc(Br)cc(S(=O)(=O)CCC(=O)Nc3ccc(C)cc3Cl)c21	-0.4%
30	COc1cc(-c2noc(CSc3nc(-c4ccccc4)cc(=O)[nH]3)n2)cc(OC)c1OC	7.7%

# Remaining list, next part
no.	mol	ClpP mod
31	Cc1ccc2c(=O)c(C(=O)c3ccc(F)cc3)cn(CC(=O)NCc3ccccc3)c2n1	-1.6%
32	CCCCNS(=O)(=O)c1ccc(N2CCCCS2(=O)=O)cc1	-3.0%
33	Cc1ccc(S(=O)(=O)c2cn(Cc3ccccc3)c3cc(N4CCCC4)c(F)cc3c2=O)c(C)c1	u
34	CCC(CC)C(=O)NCc1nc2cccnc2n1Cc1ccc(F)cc1	-1.9%
35	O=C(Nc1ccccc1)c1cc2c(-c3ccccc3)nn(-c3ccccc3)c2s1	7.1µM*
36	Cc1nc(SCc2cccc(Cl)c2)nc2c1CCCC2	-2.2%
37	COc1ccc(C(=O)NCC(c2ccc(N(C)C)cc2)N2CCOCC2)cc1 (stereo unspecified)	0.6%
38	COc1ccccc1CN1COc2ccc3c(oc(=O)c4ccccc43)c2C1	-4.0%
39	CN(N=O)c1ccc2c(c1)Cc1ccccc1-2	0.1%
40	COc1cccc(CNC(=O)c2cc(-c3cccs3)nc3ccccc23)c1	3.6%

# Continued.
no.	mol	ClpP mod
41	Cc1ccc(NC(=O)C(=O)NCc2ccc(Cl)cc2)cc1	0.9%
42	CN(Cc1ccccc1)c1ccc(-c2nc(-c3ccccn3)no2)cc1[N+](=O)[O-]	2.0%
43	Cc1c(-c2ccc(Cl)cc2)c(=O)oc2c(CN3CCN(CCO)CC3)c(O)ccc12	4.8%
44	Cc1ccc(-n2ncc3c(N4CCN(c5ccc(F)cc5)CC4)ncnc32)cc1	u
45	CCOC(=O)Cc1ccc(NC(=O)NCc2c(-n3cccc3)sc3c2CCCC3)cc1	-3.5%
46	COc1cc2nc(Cl)nc(NC3CCN(Cc4ccccc4)CC3)c2cc1OC	-0.1%
47	Cc1cc(C)cc(-n2c(C)nc3cc(C(=O)NCc4ccccc4Cl)ccc32)c1	1.1%
48	O=c1c(S(=O)(=O)c2ccccc2)cn(Cc2ccccc2)c2cc(N3CCOCC3)c(F)cc12	28µM*
49	COc1ccc(-n2c(-c3cccc(F)c3)nc3c(cnn3-c3ccc(C)cc3)c2=O)cc1	-25%
50	O=C(CC1C(=O)N(c2ccccc2)C(=O)N1Cc1ccc2c(c1)OCO2)Nc1ccccc1 (stereo unspecified)	-0.8%

# Values by screen from the entries so far:
# ClpP mod, entries 42 to 50, in order: 2.0%, 4.8%, u, -3.5%, -0.1%, 1.1%, 28µM*, -25%, -0.8%

# Next part
no.	mol	ClpP mod
51	Cc1ccc(OCC(=O)Nc2nonc2-c2ccc(Br)cc2)cc1	2.5%
52	Cc1c(CNCc2ccc(OC(C)C)cc2)c(C(=O)O)c(C)n1Cc1ccc(Cl)cc1	-0.6%
53	CCCS(=O)(=O)c1nc(S(=O)(=O)c2ccc(C)cc2)c(NCC(C)C)s1	1.1%
54	COc1cc2c(C(=O)N3CCN(c4cccc(C(F)(F)F)c4)CC3)cn(CC(C)C)c(=O)c2cc1OC	-14%
55	COc1cccc2c1cc1c(=O)n(CC(=O)N3CCN(c4ccccc4)CC3)nc(C)n12	25µM*
56	Cc1cccc(NS(=O)(=O)c2ccc3[nH]c(=O)ccc3c2)c1C	-19%
57	CCOc1ccc(NC(=O)CC2C(=O)N(c3ccc(OC)cc3)C(=O)N2CCC2=CCCCC2)cc1 (stereo unspecified)	-0.9%
58	COc1ccc(CNC(=O)C2=Cc3cccc(OC)c3OC2)cc1OC	-1.8%
59	COc1ccc(CN(C(=O)Nc2cccc(OC)c2)C2CCN(C(C)=O)CC2)cc1	-2.5%
60	COc1ccc(CCNc2nc3cc(OC)c(OC)cc3c3nc(-c4ccccc4)nn23)cc1OC	u

# Continuation.
no.	mol	ClpP mod
61	COc1ccc(NC(=O)CSc2cn(CCNC(=O)c3c(F)cccc3F)c3ccccc23)cc1	-1.3%
62	Cc1cc(-c2ccc(C)c(S(=O)(=O)Nc3ccc(C)c(N(C)C)c3)c2)on1	-1.9%
63	COc1ccccc1NC(=O)C1=C(C)Nc2nc(SCc3cc(C)ccc3C)nn2C1c1ccccc1 (stereo unspecified)	1.1%
64	N#C/C(=C\c1ccccc1)c1nc(-c2cc3cc(Br)ccc3oc2=O)cs1	-0.4%
65	CCOC(=O)c1cccc(NC(=O)Nc2ccc3c(c2)N(C)C(=O)c2ccccc2S3)c1	-2.2%
66	Cc1cccc(CNC(=O)c2ccc(N3Cc4ccccc4Oc4ncccc43)s2)c1	28µM*
67	CCOc1ccccc1CNC(=O)CN1C(=O)c2cccnc2Oc2ccc(C)cc21	-1.7%
68	Cc1ccc(S(=O)(=O)N2CCCN(c3nc(-c4cccs4)nc4ccccc34)CC2)cc1	-11%
69	COc1ccc2oc(-c3ccc(C)c(NC(=O)COc4cc(C)cc(C)c4)c3)nc2c1	4.0%
70	COc1ccc(NC(=O)c2sc3nc(C)c(C(=O)Nc4ccc(C)cc4C)c(-c4ccccc4Cl)c3c2N)cc1	-12%

# More structures.
no.	mol	ClpP mod
71	COc1ccccc1N1CCN(C(CNC(=O)C(=O)NCc2ccc(C)cc2)c2cccnc2)CC1 (stereo unspecified)	0.4%
72	O=C(Nc1ccc2nc(SCC(=O)N3CCOCC3)sc2c1)c1cccc(Cl)c1	-0.7%
73	COc1ccc(S(=O)(=O)n2nc(-c3ccco3)nc2NCc2ccc(C(C)C)cc2)cc1	-0.1%
74	CCc1ccc(CNC(=O)C2CCN(c3nn4cc(-c5ccc(OC)cc5)nc4s3)CC2)cc1	-3.5%
75	CCOC(=O)c1ccc(Nc2c(-c3ccc(OC)cc3)nc3nc[nH]n23)cc1	1.7%
76	O=C(NCC1CCN(Cc2cccc(Cl)c2)CC1)Nc1ccc(F)c(Cl)c1	-0.1%
77	COc1cc(OC)c(NC(=O)CCn2cnc3onc(-c4ccc(F)cc4)c3c2=O)cc1Cl	-3.0%
78	COc1ccc(CCNC(=O)CCCCn2c(=O)c3ccccc3n(CC(=O)Nc3c(C)cccc3C)c2=O)cc1OC	-2.8%
79	O=C(NCCc1ccccc1)c1cc(Nc2ccccc2)nc2ccccc12	u
80	CCC(=O)Oc1c(Sc2ccc(Cl)cc2)c(C)nn1C(C)(C)C	1.4%

# (continued)
no.	mol	ClpP mod
81	COc1ccc(C(=O)NCc2nnc(SCC(=O)Nc3ccccc3)n2-c2ccccc2)cc1	-0.3%
82	COc1ccc(OC)c(C(C)NC(=O)Cn2c(=O)cc(C)c3c(C)nn(-c4ccc(C)cc4)c32)c1 (stereo unspecified)	-24%
83	O=C1C(c2cccc(Br)c2)N(CCc2ccccc2)C(=O)CN1C1CCCCC1 (stereo unspecified)	-0.5%
84	CCOc1ccc(CCNC(=O)Cn2c(-c3cccs3)cc3cc(F)ccc32)cc1OCC	4.4%
85	Cc1ccc(NS(=O)(=O)c2ccc3c(c2)CC(C)N3C(=O)C2CCC2)cc1Cl (stereo unspecified)	-4.2%
86	CCCCN(CC)C(=O)CSc1nc2n[nH]c(C)c2c(=N)n1-c1cccc(Cl)c1	u
87	CCOC(=O)c1[nH]c2ccccc2c1NC(=O)c1ccc(OCC)cc1	3.7%
88	O=C(OCc1ccccc1Cl)c1ccc(-c2nnn(Cc3ccccc3)n2)cc1	-0.7%
89	CCC(=O)N1CCc2cc(S(=O)(=O)NCCC(=O)Nc3cccc(SC)c3)ccc21	0.0%
90	CCOc1ccccc1CNC(=O)CN1C(=O)C2CCCCN2c2ccc(C(=O)N(C)C)cc21 (stereo unspecified)	-2.5%

# Further results:
no.	mol	ClpP mod
91	Cn1c(-n2cccc2)c(-c2c(-c3ccc(F)cc3)[nH]c3c2c(=O)[nH]c(=O)n3C)c(=O)[nH]c1=O	-4.6%
92	COC(=O)c1ccc(OCC(O)Cn2cnc3cc(C)c(C)cc32)cc1 (stereo unspecified)	2.0%
93	CCCn1c(=O)c2sccc2n2c(CCCC(=O)N3CCN(c4cccc(Cl)c4)CC3)nnc12	u
94	Cc1ccccc1NC(=O)c1c(C)oc2ccc(O)c(CN3CCCC(C)C3)c12 (stereo unspecified)	-0.5%
95	CCCCn1c(=O)n(-c2ccc(Br)cc2F)c(=O)c2c3c(sc21)CN(C(C)=O)CC3	0.3%
96	CCCN(CCC)CCCNC(=O)Cn1cnc2onc(-c3ccc(F)cc3)c2c1=O	2.1%
97	Cc1nc2cccnc2n1C1CCN(S(=O)(=O)N(C)C)CC1	0.7%
98	CCc1nn2c(=O)cc(COC(=O)c3ccccc3NC(=O)COc3ccc(F)cc3)nc2s1	-15%
99	COc1cccc([C@@H]2Nc3ccc(C(=O)O)cc3[C@@H]3C=CC[C@@H]32)c1OC	-26%
100	Clc1ccc(-c2nc3ccccn3c2Nc2ccc3c(c2)OCCO3)s1	-21%

# More structures:
no.	mol	ClpP mod
101	O=C(COc1ccccc1Cl)OCc1cc(=O)n2nc(C3CCCCC3)sc2n1	-3.6%
102	CC(C)c1ccc2oc(-c3ccc(Cl)c(NC(=O)Cc4ccccc4)c3)nc2c1	-20%
103	CCc1ccc2oc(C(=O)Nc3cccc(Cl)c3C)cc(=O)c2c1	-1.9%
104	CCc1cc2c(cc3c(=O)n(CC(=O)NC(C)C)nc(CC)n32)s1	0.3%
105	CSc1ncc(C(=O)NCc2cccc(Br)c2)c(-c2ccccc2)n1	-5.0%
106	COc1ccc(N2CCN(C(=O)c3cc(S(=O)(=O)N4CCCCCC4)cn3C)CC2)cc1	2.1%
107	Cc1nc2nc(SCC(=O)NCc3ccccc3)nn2c(C)c1Cc1ccccc1Cl	0.9%

# Four entries from above in another layout:
101. O=C(COc1ccccc1Cl)OCc1cc(=O)n2nc(C3CCCCC3)sc2n1
  ClpP mod: -3.6%
103. CCc1ccc2oc(C(=O)Nc3cccc(Cl)c3C)cc(=O)c2c1
  ClpP mod: -1.9%
102. CC(C)c1ccc2oc(-c3ccc(Cl)c(NC(=O)Cc4ccccc4)c3)nc2c1
  ClpP mod: -20%
107. Cc1nc2nc(SCC(=O)NCc3ccccc3)nn2c(C)c1Cc1ccccc1Cl
  ClpP mod: 0.9%

# Only part of the results is shown (hit frequency here may not be typical).
